# RecA splice inh – Mtb RecA intein splicing inhibition; cell-free RecA intein splicing, fluorescence; inhibition, %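 (about 9 µM by stock and volumes)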; 290,000 compounds, 0.75% hits; AID 2221; in the data active means inhibition above about 30%;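 further: 0% = vehicle wells and 100% = reference inhibitor control wells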
# Target sequence (P9WHJ3 whole entry, looked up, canonical isoform): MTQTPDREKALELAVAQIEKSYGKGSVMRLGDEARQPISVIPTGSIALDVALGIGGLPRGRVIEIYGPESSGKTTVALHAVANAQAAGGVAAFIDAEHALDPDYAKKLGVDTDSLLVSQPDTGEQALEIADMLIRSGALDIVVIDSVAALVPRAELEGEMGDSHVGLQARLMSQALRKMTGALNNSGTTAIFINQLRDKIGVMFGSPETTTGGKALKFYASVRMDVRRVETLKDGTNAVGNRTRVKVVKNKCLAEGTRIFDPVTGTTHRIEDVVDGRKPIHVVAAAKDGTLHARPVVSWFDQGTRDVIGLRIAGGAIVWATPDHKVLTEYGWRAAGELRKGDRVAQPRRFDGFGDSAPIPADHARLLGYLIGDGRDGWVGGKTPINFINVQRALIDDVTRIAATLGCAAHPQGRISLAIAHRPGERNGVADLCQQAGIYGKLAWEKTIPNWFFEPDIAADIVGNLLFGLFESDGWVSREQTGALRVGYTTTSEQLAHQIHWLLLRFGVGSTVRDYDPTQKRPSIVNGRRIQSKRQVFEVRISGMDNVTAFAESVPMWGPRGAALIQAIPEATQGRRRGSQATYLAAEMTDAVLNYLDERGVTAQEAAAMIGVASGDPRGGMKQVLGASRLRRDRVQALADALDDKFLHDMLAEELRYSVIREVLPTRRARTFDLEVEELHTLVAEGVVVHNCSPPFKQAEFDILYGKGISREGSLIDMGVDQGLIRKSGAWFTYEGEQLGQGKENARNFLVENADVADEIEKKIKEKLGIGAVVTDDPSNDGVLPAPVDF
# Arbovirus anti – antivirals against arbovirus infection; arbovirus infection cell-based antiviral screen; inhibition, % at 10 µM; 200,000 compounds, 0.37% hits; AID 1251;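 active means inhibition from about 30%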;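 further: bluetongue infection of BSR cells; cell survival read as ATP light after 72 h; 0% = infected wells without compound and 100% = uninfected wells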
# Mtb betalactam – beta-lactam sensitization of Mtb H37Rv; M. tuberculosis H37Rv growth with meropenem, percent inhibition; hits of this screen are not shown here; inhibition, % at 25 µM; 330,000 compounds, 0.27% hits; AID 434955;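 active means about 74% or more and at least 40 points above the plate without the antibiotic, then above 30% in a dose series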;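 further: growth measured after seven days incubation then overnight dye step; 0% = bacteria only wells and 100% = bacteria with antibiotic; twin plates without the antibiotic show which effects depend on it; some results filed as inactive read as strong as hits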
# Mtb growth – M. tuberculosis H37Rv growth inhibitors, H37Rv strain (AID 1626); M. tuberculosis H37Rv growth inhibition; higher % means a stronger effect; inhibition, % at 10 µM, or IC50 in µM where a hit was titrated; 220,000 compounds, 0.95% hits;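 active means confirmed in a dose series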;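 further: bacteria incubated seven days before Alamar blue readout; 0% = bacteria only wells and 100% = bacteria with antibiotic wells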
# YopH inh – inhibitors of Yersinia enterocolitica YopH tyrosine phosphatase; fluorescence Ex485/Em525; inhibition, %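 (about 10 µM by stock and volumes)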; 140,000 compounds, 0.16% hits; AID 898;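 active means inhibition of 50% or more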;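 further: controls were vehicle for no effect and minimum signal wells for full effect; inactives centre near -20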
# Arbovirus anti repeat – further read-out of Arbovirus anti, marked with its call; inhibition, %; measured here: 10K subset replicate screen; many hits read low in the repeat;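 first of two repeat runs on a subset; 0% = infected and 100% = uninfected wells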
# Active calls of the source: *; . = not tested or not shown.
SMILES,RecA splice inh,Arbovirus anti,Mtb betalactam,Mtb growth,YopH inh,others
COc1cc([N+](=O)[O-])cc(/C=N/NC(=O)C(O)(c2ccccc2)c2ccccc2)c1O,7.1,.,2,.,.,
N#CC1=C(SCc2ccccc2)NC(=O)C(C#N)C12CCCC2 (stereo not given),11,0,-1,-4%,-53,
Cc1ccc(Oc2c(F)c(F)nc(N3CCCC3)c2F)cc1,7.4,-1,8,-1%,-16,
Cc1cc(N2CCN(C)CC2)nc2ccc(NC(=O)c3cccnc3Cl)cc12,-1.7,23,34,-11%,-20,
CCOC(=O)N1CCN(C(=O)c2ccc(CS(=O)(=O)c3ccc(OC)cc3)o2)CC1,.,3,-7,-11%,-28,Arbovirus anti repeat=1
Cc1cc2nc3c(nc2cc1C)C(O)=C3O,-3.3,.,6,1%,.,
Cn1cc(C(=O)N2CCCCC2)c2ccccc21,-1.5,1,0,8%,.,
Cc1ccc(C2(CCNCc3ccco3)CCOC(C(C)C)C2)cc1 (stereo not given),3.4,.,-2,-5%,.,
COc1cc(/C=N/n2cnc3c(sc4nc(C)cc(C)c43)c2=O)ccc1O,-3.0,.,-3,-2%,.,
CC1CCCC(C)N1CCCNC(=O)c1nn(C)c2c1CSc1ccccc1-2 (stereo not given),-2.9,.,-4,.,.,
CC(C)C(=O)Nc1nnc(CCc2ccccc2)s1,2.1,.,2,.,.,
COc1cccc(C2(c3cccc(OC)c3)CC2C(=O)Nc2ccc(F)cc2)c1 (stereo not given),2.4,2,16,26%,-17,
CC(C)(C)C(=O)CSc1nc2ccccc2o1,-0.9,-8,-6,4%,.,
COc1ccc(/C=C(\NC(=O)/C=C/c2ccco2)C(=O)NCCc2nc3ccccc3[nH]2)cc1,5.6,-1,89,12%,-36,
CC1CCN(S(=O)(=O)c2cccc(C(=O)Nc3ccccc3)c2)CC1,3.2,-9,0,0%,.,
CC(C)c1cc(C(C)C)n2nc(N)nc2n1,-1.7,.,-1,2%,.,
c1ccc2oc(-c3[nH]ncc3CN3CCSCC3)cc2c1,-0.2,6,13,0%,.,
C[C@@H]1CCC[C@]2(O[C@@H](CCO)C[C@H](O)[C@H]2O)O1,-1.9,.,-8,-4%,.,
O=C(CN1C2CCCC1CC(NC(=O)c1ccco1)C2)Nc1ccccc1 (stereo not given),-5.0,-1,2,4%,0,
CCOC(=O)c1cc(-c2ccccc2)sc1NC(=O)C(C)Sc1nnnn1C (stereo not given),0.2,-17,15,0%,-30,

# An excerpt from above in order of molar mass, largest number first:
SMILES,RecA splice inh,Arbovirus anti,Mtb betalactam,Mtb growth,YopH inh,others
CC(C)C(=O)Nc1nnc(CCc2ccccc2)s1,2.1,.,2,.,.,
CC(C)(C)C(=O)CSc1nc2ccccc2o1,-0.9,-8,-6,4%,.,
C[C@@H]1CCC[C@]2(O[C@@H](CCO)C[C@H](O)[C@H]2O)O1,-1.9,.,-8,-4%,.,

# Next part
SMILES,RecA splice inh,Arbovirus anti,Mtb betalactam,Mtb growth,YopH inh,others
O=C(NCc1ccccc1)C1(c2cccc(F)c2)CCCC1,1.3,4,0,3%,.,
Cc1cc(C)c2cc(C#N)c(N3CCCN(C(=O)c4cnccn4)CC3)nc2c1,-0.9,.,-11,.,.,
Cc1cc(C(=O)N2CCCC(C(=O)c3ccc4ccccc4c3)C2)n(C)n1 (stereo not given),1.5,7,-3,-4%,.,
O=C(Nc1cccc(S(=O)(=O)N2CCCC2)c1)c1cc(S(=O)(=O)N2CCOCC2)ccc1F,-0.9,.,-9,.,.,
O=C(C1CSC2(c3ccc(F)cc3)CCC(=O)N12)N1CCCCCC1 (stereo not given),-0.8,4,2,-5%,-35,
Cc1c(N=C/C=C2\N(C)c3ccccc3C2(C)C)c(=O)n(-c2ccccc2)n1C,-0.3,-2,11,7%,-38,
O=c1cc(CSc2nnnn2-c2ccc(O)cc2)nc2sccn12,-1.2,5,-1,1%,.,
COCCNC(=O)C1CCN(S(=O)(=O)c2ccccc2)CC1,0.8,-1,5,-3%,-29,Arbovirus anti repeat=5
CSc1nc2n(n1)C(C)C1=C(CCCC1=O)N2 (stereo not given),-0.7,-2,-1,-1%,.,
Cc1cccc(-n2c(C)nc3sccc3c2=O)c1,2.1,-1,6,-1%,-9,
CCc1ccc(OCCSc2nc3ccccc3n2CC(=O)O)cc1,3.6,.,-2,.,.,
CCOC(=O)C(=O)Nc1ccccc1C(=O)Nc1ccc(OC)cc1,-5.0,7,-1,7%,-5,
O=C(CSc1nnc2c(n1)[nH]c1ccccc12)N1CCCCC1,-1.7,.,-3,.,.,
COC(=O)c1cn(Cc2cccc(C)c2)nn1,4.2,-7,6,0%,-20,
O=C(Nc1ccc(OCC(=O)N2CCOCC2)cc1)c1cncc(Br)c1,-0.8,14,-8,2%,-14,
CCOC(=O)C1CN(S(=O)(=O)c2ccc(OC)cc2)c2cc(Cl)ccc2O1 (stereo not given),-0.7,.,9,.,.,
COc1ccc(C2NC(c3ccc(OC)cc3)C([N+](=O)[O-])C(C)(C)C2[N+](=O)[O-])cc1 (stereo not given),4.5,-18,8,-6%,.,
O=S(=O)(c1ccccc1)N(CC(O)Cn1c2ccccc2c2ccccc21)c1ccccc1 (stereo not given),-2.9,-25,-6,11%,-10,
N#CCSc1nc2sc3c(c2c(=O)n1C1CCCCC1)CCCC3,6.2,3,0,-15%,-6,
Cc1nnc(N2CCc3ccccc3C2)[nH]c1=O,4.0,0,-3,-4%,11,

# Quoted at random: five entries already listed
SMILES,RecA splice inh,Arbovirus anti,Mtb betalactam,Mtb growth,YopH inh,others
O=C(Nc1cccc(S(=O)(=O)N2CCCC2)c1)c1cc(S(=O)(=O)N2CCOCC2)ccc1F,-0.9,.,-9,.,.,
O=C(NCc1ccccc1)C1(c2cccc(F)c2)CCCC1,1.3,4,0,3%,.,
Cc1c(N=C/C=C2\N(C)c3ccccc3C2(C)C)c(=O)n(-c2ccccc2)n1C,-0.3,-2,11,7%,-38,
CCc1ccc(OCCSc2nc3ccccc3n2CC(=O)O)cc1,3.6,.,-2,.,.,
N#CCSc1nc2sc3c(c2c(=O)n1C1CCCCC1)CCCC3,6.2,3,0,-15%,-6,

# Structural class, the entries above containing a thiophene ring, fused or not
SMILES,RecA splice inh,Arbovirus anti,Mtb betalactam,Mtb growth,YopH inh,others
COc1cc(/C=N/n2cnc3c(sc4nc(C)cc(C)c43)c2=O)ccc1O,-3.0,.,-3,-2%,.,
CCOC(=O)c1cc(-c2ccccc2)sc1NC(=O)C(C)Sc1nnnn1C (stereo not given),0.2,-17,15,0%,-30,
Cc1cccc(-n2c(C)nc3sccc3c2=O)c1,2.1,-1,6,-1%,-9,
N#CCSc1nc2sc3c(c2c(=O)n1C1CCCCC1)CCCC3,6.2,3,0,-15%,-6,

# Later entries
SMILES,RecA splice inh,Arbovirus anti,Mtb betalactam,Mtb growth,YopH inh,others
O=C(O)c1cccc(NC(=O)C2C3C=CC(C3)C2C(=O)OCC(F)(F)C(F)F)c1 (stereo not given),-2.1,3,-1,-5%,-16,
O=C(c1ccco1)N1CCN(S(=O)(=O)c2cccc(C(F)(F)F)c2)CC1,3.0,5,7,0%,-10,
O=C(NCCc1ccccc1)c1cccc([N+](=O)[O-])c1,-2.6,-6,-9,2%,-23,
O=P(Cc1cccc[n+]1[O-])(c1ccccc1)c1ccccc1,-1.5,8,-11,-1%,-5,
CCC(C)n1[nH]c(=O)cc1N (stereo not given),-5.5,-1,4,-10%,-17,
C/C(O)=c1/cnc2nc3ccccc3n2c1=O,-0.6,10,-8,-4%,.,
C[C@H](NC(=O)c1nc[nH]c1C(=O)NCCCCCNC(=O)OC(C)(C)C)C(=O)OC(C)(C)C,-1.1,2,-2,-3%,.,
COc1cc([C@@H]2c3cc4c(cc3[C@@H](NC3CCN(Cc5ccccc5)CC3)[C@H]3COC(=O)[C@H]23)OCO4)cc(OC)c1O,-4.6,.,.,51%,.,
C/C(=N\NC(=O)c1cccc(F)c1)c1ccc(NC(=O)Cc2ccccc2)cc1,-4.1,.,-4,.,.,
COc1cc(C2C(C#N)=C(N)Oc3c2ccc2ccccc32)ccc1OCC(=O)Nc1cccc(C)c1 (stereo not given),6.2,4,73,30%,-5,
COc1ccccc1NS(=O)(=O)c1ccc(C)c(NS(=O)(=O)c2cc(C(=O)O)cc(C)c2C)c1,-1.2,.,-3,.,.,
CN(C)S(=O)(=O)c1cc(C(=O)NCCCn2ccc3ccccc32)ccc1Cl,1.1,-7,24,-4%,-45,
Nc1nnn(CC(=O)N/N=C/c2ccncc2)n1,-4.3,.,0,-3%,.,
Cc1ccc(NC(=O)CSc2nnc(C3CC3)n2N)cc1S(=O)(=O)N1CCOCC1,0.0,-7,1,-5%,.,
C=CCNC(=O)/C(C#N)=C/c1ccc(C)o1,3.6,0,-5,1%,.,
CCCCNC(=O)CC1SC(=NCC)N(CC)C1=O (stereo not given),3.3,1,-4,-5%,7,
CCOC(=O)C1CCN(C(=O)c2cc3c(=O)n4ccccc4nc3s2)CC1,-31,.,-7,.,.,
N#Cc1c(N)nc2c(c1-c1cccc(O)c1)CCCCCC2,-2.2,-12,-12,.,-52,
CCOC(=O)Cn1ccc(O)c(Cc2ccc(Cl)cc2Cl)c1=O,-0.4,0,-3,0%,-30,
CCOC(=O)C1(CCc2ccccc2)CCN(C(=O)C2CCOCC2)CC1,-3.9,0,-2,3%,.,
Cc1ccc(C)c(C(=O)c2c(C)nc3sccn23)c1,.,-15,8,-1%,-40,
O=C(Cc1ccc(F)cc1)N(c1ccc(F)cc1)C1C=CS(=O)(=O)C1 (stereo not given),1.7,-4,8,-6%,-13,
NC(=O)c1cc2ccccc2oc1=NCc1ccccc1,7.5,1,1,-3%,-35,
COc1ccc(S(=O)(=O)N[C@@H](C)C(=O)OCC(=O)Nc2cc3oc4ccccc4c3cc2OC)cc1,6.3,-6,1,0%,-22,
CCOC(=O)Nc1nnc(Cc2ccc(Cl)c(Cl)c2)s1,0.8,-29,1,7%,.,
Cc1ccc2nsnc2c1S(=O)(=O)N(Cc1cc2cccc(C)c2[nH]c1=O)CC1CCCO1 (stereo not given),-4.1,9,8,-4%,-20,
Cc1nc2ccccc2n2c(-c3ccccc3)c3c(=O)n(C)c(=O)n(C)c3c12,-4.1,-3,11,-4%,15,
O=[N+]([O-])c1cccc(-c2c[n+]3c(n2-c2ccccc2)SCC3)c1,-6.4,17,-18,1%,.,
COc1ccc(Cl)cc1NC(=O)CSc1nncn1-c1cccnc1,8.7,-1,3,6%,34,
COC(=O)c1cc(OC)c(OC)cc1NC(=O)CN1CCCCC1,0.4,10,-3,1%,12,
CC1CCCC(C)N1S(=O)(=O)c1ccc(Cl)cc1 (stereo not given),0.4,.,-8,.,.,
Cn1c(=O)c2c(ncn2CC(=O)N/N=C/C=C/c2ccccc2)n(C)c1=O,-3.3,6,-1,24%,-31,
Cc1ccc2oc3c(c(=O)c2c1)C(c1ccc(F)cc1)N(CCCN1CCOCC1)C3=O (stereo not given),.,9,.,-5%,-50,Arbovirus anti repeat=3
Cn1nnc(NC(=O)CSc2ncn[nH]2)n1,-1.1,-1,4,-11%,-16,
COc1ccc(OCc2cc(C(=O)N3CCCN(C(C)=O)CC3)no2)c(Cl)c1,-3.9,.,-3,.,.,
CNC(=O)/C(C#N)=C/c1cn(CC(=O)OC)c2ccccc12,-0.5,.,-4,-1%,.,
COc1ccc(S(=O)Cc2ccc(C(=O)N3CCN(c4cccc(C)c4C)CC3)o2)cc1 (stereo not given),4.7,.,1,.,.,
N#CCC(=O)NCCCc1ccccc1,-0.4,2,2,5%,-6,
Cc1ccc2nc(SCC(=O)NCC3CCCO3)c(C#N)cc2c1 (stereo not given),-1.2,-6,22,-10%,-43,
Cc1nnc(SCC(=O)Nc2cccc(C(F)(F)F)c2)n1Cc1ccco1,0.8,4,-2,5%,-43,

# The final 2 entries of the part before come first, to join the parts.
SMILES,RecA splice inh,Arbovirus anti,Mtb betalactam,Mtb growth,YopH inh,others
Cc1ccc2nc(SCC(=O)NCC3CCCO3)c(C#N)cc2c1 (stereo not given),-1.2,-6,22,-10%,-43,
Cc1nnc(SCC(=O)Nc2cccc(C(F)(F)F)c2)n1Cc1ccco1,0.8,4,-2,5%,-43,
COc1ccc(NC(=O)c2ccc(COc3ccc(C)cc3)o2)cc1,3.8,1,7,40%,.,
O=C1C2C3c4ccccc4C(c4ccccc43)C2C(=O)N1Cc1cccnc1 (stereo not given),0.0,-2,-3,12%,-42,
CCn1cc(C(=O)N2CCN(c3ccc(F)cc3)CC2)c2cc(OC)c(OC)cc2c1=O,0.1,27,-1,0%,.,
COc1ccc(C=Nc2cccc3c(=O)[nH][nH]c(=O)c23)c2ccccc12,0.3,-4,-4,-6%,-3,
CC(=O)NC12CC3CC(CC(CC(=O)O)(C3)C1)C2,-0.6,0,-4,-4%,10,

# Source: PubChem (several laboratories)

# The list is partial; the hit share may differ from the screen's.
